MenB inh – Mtb MenB enzyme inhibition; P9WNP5; 100,000 compounds, 0.43% hits; inhibition, %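 (about 12 µg/mL by stock and volumes)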; MenB enzyme assay, absorbance read-out; some hits fall short of the stated cut;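 active = mean of two replicates above 30%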;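 also: 0% = no compound and 100% = wells with inactive enzyme; the first replicate is given; strong numbers were not always called active; inactives centre near -10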
Target sequence (P9WNP5 whole entry, looked up): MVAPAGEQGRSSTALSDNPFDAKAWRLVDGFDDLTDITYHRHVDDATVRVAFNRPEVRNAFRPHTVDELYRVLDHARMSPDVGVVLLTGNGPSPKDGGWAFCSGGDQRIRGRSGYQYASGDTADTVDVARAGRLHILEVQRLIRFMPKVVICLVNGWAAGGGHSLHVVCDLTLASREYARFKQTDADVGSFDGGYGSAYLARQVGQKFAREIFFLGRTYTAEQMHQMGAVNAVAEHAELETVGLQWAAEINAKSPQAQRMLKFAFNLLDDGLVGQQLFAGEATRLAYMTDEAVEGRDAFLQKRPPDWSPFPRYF
Polio RdRp inh – inhibitors of poliovirus RNA polymerase binding and polymerization. P03300. poliovirus polymerase elongation, fluorescence polarization; stronger effect = lower value. % elongation, % (compound at 16.7 µg/mL). 150,000 compounds, 0.66% hits. AID 588519; in the data active = % elongation below about 90%; also: some results filed as inactive read as strong as hits
Mtb MbtI inh – blocks the Mycobacterium tuberculosis siderophore enzyme MbtI; purified MbtI enzyme, fluorescence intensity read-out; inhibition, %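 (about 17 µg/mL by stock and volumes)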; 100,000 compounds, 0.89% hits; AID 493033;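 active = above 50% in both replicates, above 80% if mildly self-fluorescent; inactive = the rest, strongly fluorescent compounds included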;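 also: 0% = mean of negative and 100% = mean of positive controls; one replicate is shown; some compounds called inactive have numbers as strong as hits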
Target sequence (P9WFX0 whole entry, looked up): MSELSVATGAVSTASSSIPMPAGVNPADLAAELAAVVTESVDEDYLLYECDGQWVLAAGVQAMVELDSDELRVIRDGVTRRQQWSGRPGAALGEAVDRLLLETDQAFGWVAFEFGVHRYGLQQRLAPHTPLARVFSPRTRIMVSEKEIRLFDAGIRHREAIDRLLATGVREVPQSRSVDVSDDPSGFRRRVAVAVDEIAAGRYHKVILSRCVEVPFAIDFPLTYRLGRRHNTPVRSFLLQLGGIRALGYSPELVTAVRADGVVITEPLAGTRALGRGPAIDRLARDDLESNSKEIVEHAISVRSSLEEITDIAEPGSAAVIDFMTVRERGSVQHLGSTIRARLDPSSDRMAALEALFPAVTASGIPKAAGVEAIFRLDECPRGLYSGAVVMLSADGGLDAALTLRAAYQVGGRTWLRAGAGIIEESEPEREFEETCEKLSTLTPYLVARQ
Polio RdRp inh intensity – recorded beside Polio RdRp inh, whose call it bears; % elongation; measured here: total intensity read-out; formula for this scale not given here;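 total fluorescence in place of polarization; lower means less elongation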
The depositor's hits bear a star; i = inactive; x = not tested or not shown; & = joins results of further samples.

entry	canonical_smiles	Polio RdRp inh intensity	Mtb MbtI inh	Polio RdRp inh	MenB inh
1	Cc1c(NC(=O)CSc2nnc(Cc3ccccc3)o2)c(=O)n(-c2ccccc2)n1C	101.0	-5.9	99.0	-12.3
2	CS(=O)(=O)NCCc1ccc(C(=O)O)cc1	96.0	-11.2	96.0	-44.7
3	CCCc1cc(NC(=O)COC(=O)c2ccc(O)cc2O)n(-c2ccccc2)n1	107.0	-3.3	102.0	7.0
4	O=C(N/N=C/c1c[nH]c2ccc(Br)cc12)C1CC1	93.0	-2.6	102.0	0.7
5	CC1Cc2ccccc2N1C(=O)c1ccc2c(c1)nnn2C (configuration not stated)	104.0	83.0	102.0	-45.6
6	Nc1nc2ccccc2n1CCOc1ccc2ccccc2c1	102.0	-4.9	101.0	-2.7
7	COc1cccc(N/C=C/C(=O)c2cccs2)c1	104.0	-10.9	104.0	-243.1
8	Cc1cc(Nc2cccc(Cl)c2)nc2ccc(NC(=O)c3ccc(=O)[nH]c3)cc12	106.0	-124.9	105.0	-19.6
9	O=S(=O)(NCCc1nc2ccccc2[nH]1)c1ccccc1	102.0	4.7	102.0	23.2
10	C=CCn1c2nc3ccccc3nc2c2c(=O)n(Cc3ccc4c(c3)OCO4)cnc21	108.0	-15.0	108.0	-40.9
11	CCNc1nc(OC(C(F)(F)F)C(F)(F)F)nc(N(c2ccccc2)c2ccccc2)n1	105.0	x	104.0	-1.5
12	Cn1c(-c2ccccc2)cnc1NCc1ccc(Br)cc1	102.0	24.4	100.0	-32.4
13	Cc1cc(C)c2c(N)c(-c3n[nH]c(=S)n3C)sc2n1	191.0	3.2	70.0	-98.1
14	Cc1cc(C)c(-c2cc(N)n[nH]2)cc1C	97.0	-8.0	93.0	x
15	CCCNS(=O)(=O)c1cc(OC)ccc1OC	100.0	8.3	101.0	-7.4

Complete entries, quoted from the list. Order of screens: Polio RdRp inh intensity | Mtb MbtI inh | Polio RdRp inh | MenB inh
CCCNS(=O)(=O)c1cc(OC)ccc1OC across the screens: 100.0 | 8.3 | 101.0 | -7.4
C=CCn1c2nc3ccccc3nc2c2c(=O)n(Cc3ccc4c(c3)OCO4)cnc21 across the screens: 108.0 | -15.0 | 108.0 | -40.9
CS(=O)(=O)NCCc1ccc(C(=O)O)cc1 across the screens: 96.0 | -11.2 | 96.0 | -44.7
CCNc1nc(OC(C(F)(F)F)C(F)(F)F)nc(N(c2ccccc2)c2ccccc2)n1 across the screens: 105.0 | x | 104.0 | -1.5
O=S(=O)(NCCc1nc2ccccc2[nH]1)c1ccccc1 across the screens: 102.0 | 4.7 | 102.0 | 23.2

Next section
entry	canonical_smiles	Polio RdRp inh intensity	Mtb MbtI inh	Polio RdRp inh	MenB inh
16	O=C(O)COCC(=O)Nc1ccc(-n2cnnn2)cc1	102.0	-5.5	101.0	4.8
17	O=C(CN1C(=O)c2ccccc2S1(=O)=O)NC1CCCCC1	103.0	-2.2	102.0	x
18	CCc1ccc(NC(=O)C(C)OC(=O)c2ccc3ccccc3n2)cc1 (configuration not stated)	102.0	-9.8	101.0	x
19	CCN(CC)c1c(S(=O)(=O)c2ccccc2)cnc2cc(OC)c(OC)cc12	104.0	-13.1	102.0	-33.0
20	O=C(/C=C/c1ccc(F)cc1)NC(Cc1ccccc1)C(=O)O (configuration not stated)	102.0	3.3	103.0	x
21	CC(=O)NC(c1ccccc1)c1ccccc1	102.0	x	100.0	4.9
22	COc1ccccc1/C=N/OCC(=O)N(C)c1ccccc1	95.0	-15.9	98.0	-11.9
23	COC(=O)c1cc(C=C(C#N)C#N)cn1C	100.0	-8.2	102.0	-9.6
24	NC(=S)c1nc(-c2ccccc2)oc1N	104.0	29.1	101.0	-21.1
25	O=C(Nc1c[nH]c2ccccc2c1=O)NC1CCCC1	100.0	124.4	100.0	-6.2
26	COC(=O)c1cc(CSc2nc3ccccc3[nH]2)ccc1O	108.0	16.4	101.0	-26.8
27	Cn1c(C(C#N)C(=O)c2cc(-c3cccnc3)nc3ccccc23)nc2ccccc21 (configuration not stated)	118.0	2.0	115.0	8.8
28	CCCCCCCC/C=C\CCCCCCCC(=O)OC[C@H](CO)OC(C)=O	105.0&104.0	-19.9	101.0&100.0	0.5
29	N=C1c2ccccc2CN1NC(=O)CC12CC3CC(CC(C3)C1)C2	102.0	15.9	102.0	2.5
30	O=c1c2ccccc2nnn1CSc1nc2cc(Cl)ccc2c(=O)n1C1CCCC1	105.0	-14.6	105.0	3.6

entry	canonical_smiles	Polio RdRp inh intensity	Mtb MbtI inh	Polio RdRp inh	MenB inh
31	CCOc1ccc(NC(=S)Nc2cc(C)[nH]n2)cc1	100.0	17.3	98.0	3.5
32	COc1ccc2nc(N=NC3=C(O)CC(C)(C)CC3=O)sc2c1	93.0	18.4	100.0	-73.2
33	CC(=O)OC1CCC2OC1CCC2OC(C)=O (configuration not stated)	103.0	-10.6	100.0	-2.9
34	Fc1ccccc1NC(=S)N/N=C/c1cn(-c2ccccc2)nc1-c1cc2ccccc2o1	x	-8.2	x	-0.9
35	C=COC(=O)c1sc2nc(C)cc(C)c2c1N	114.0	x	105.0	0.9
36	O=C(OCC(=O)N1c2ccccc2Sc2ccccc21)c1cnccn1	107.0	2.0	102.0	7.3
37	CC(C)(C)OC(=O)CSc1nnc(-c2cc(Cl)ccc2Cl)n1N	99.0	3.6	103.0	9.2
38	Cn1cccc1C(=O)O	93.0	0.7	99.0	-1.8
39	CC(C)NC(=O)C1CCCN1C(=O)Nc1ccccc1 (configuration not stated)	100.0	-0.3	100.0	18.5
40	Cc1oc(-c2ccccc2)nc1C(=O)OCC(=O)c1ccc(Cl)cc1	112.0	-3.2	106.0	-20.4
41	Nc1ccccc1C(=O)NC12CC3CC(CC(C3)C1)C2	102.0	i	102.0	-22.7
42	Cc1ccc2oc(-c3ccc(C(C)(C)C)cc3)nc2c1	95.0	3.3	103.0	-1.2
43	O=C1CCCc2[nH]c(-c3ccccc3)nc21	101.0	22.7	99.0	-1.1
44	Cc1ccnc(NS(=O)(=O)c2ccc(N3C(=O)Nc4ccccc4N3O)cc2)c1	101.0	5.6	101.0	4.4
45	CCN(CC)c1ccc(/C=C2/SC(=O)NC2=O)cc1	126.0	6.8	121.0	-188.8

entry	canonical_smiles	Polio RdRp inh intensity	Mtb MbtI inh	Polio RdRp inh	MenB inh
46	COc1ccc(S(=O)(=O)NNc2ncnc3sc4c(c23)CCCC4)cc1	104.0	75.2	102.0	-22.9
47	O=C(O)c1ccc(-c2nn[nH]n2)cc1	100.0	0.4	101.0	-11.9
48	CN(C)C(=S)NC1CCCCC1	107.0	10.7	102.0	-3.1
49	CCOC(=O)c1oc2ccc(Br)cc2c1COC(=O)Cn1c(=O)oc2ccccc21	109.0	10.7	101.0	-14.8
50	NCCCN1CCCCC1	107.0	-8.2	105.0	-22.2
51	COc1cccc(NC(=O)COc2ccccc2F)c1	104.0	-15.7	102.0	x
52	O=C1CN(O)C=C2N=c3ccccc3=C2N1c1ccccc1	102.0	4.3	105.0	-21.6
53	Cc1ccccc1CN1CCN(c2ccc(Cl)cc2)CC1	103.0	-8.7	103.0	-5.6
54	Nc1nc(-c2cccnc2)nc2c1c(=O)oc1ccccc12	107.0	x	106.0	1.1
55	CC(C)(C)C1CCc2c(sc3c2C(=O)NC(c2ccco2)N3)C1 (configuration not stated)	104.0	x	102.0	-22.6
56	CSc1nc(C)c(CCC(=O)OCC(N)=O)c(C)n1	104.0	12.1	101.0	6.4
57	CC(c1cccs1)n1nccc1NC(=O)CCC(=O)O (configuration not stated)	106.0	8.8	107.0	-9.3
58	Cc1cccc(NC2=NS(=O)(=O)c3ccccc3N2)c1	103.0	16.6	102.0	-1.0
59	N#Cc1cc2ccc(Br)cc2cc1C#N	102.0	1.1	98.0	-24.0
60	O=C1CC(n2nc(C(O)c3ccccc3)n(-c3ccccc3)c2=S)C2COC1O2 (configuration not stated)	111.0	x	113.0	-2.9

entry	canonical_smiles	Polio RdRp inh intensity	Mtb MbtI inh	Polio RdRp inh	MenB inh
61	Cc1cc(C(F)(F)F)nn1CC(=O)O	103.0	-8.8	100.0	-8.0
62	O=C(CSCc1c(Cl)cccc1Cl)N1CCOCC1	102.0	-14.3	101.0	-2.1
63	CCOC(=O)/C=C1\SCC(=O)N1Cc1ccc(C(=O)OC)cc1	117.0	-3.3	111.0	-0.2
64	NC(=O)CCN1CCn2c1nc1ccccc12	110.0	x	108.0	-1.5
65	NS(=O)(=O)c1ccc(CNS(=O)(=O)c2ccccc2)cc1	105.0	-7.6	102.0	3.4
66	Oc1ccccc1C=Nc1ccccc1O	106.0	-5.7	105.0	x
67	CC(c1ccccc1)n1c(SC(F)F)nc2ccccc2c1=O (configuration not stated)	99.0	-7.7	109.0	-11.9
68	CCN(CC)Cc1ccc(C(=O)O)cc1	101.0	-19.0	100.0	-16.2
69	CCN1CCCC1CNC(=O)c1nnc(Cc2cccc(F)c2)o1 (configuration not stated)	107.0	-3.8	106.0	-18.5
70	S=C1CCc2ccccc2N1Cc1ccccc1	112.0	-5.0	106.0	-3.3
71	CCCNC(=O)CN1CCN(c2cc3ccccc3c(Cl)n2)CC1	114.0	-9.1	102.0	-5.3
72	O=C(CCCc1c[nH]c2ccccc12)NCc1ccccc1C(F)(F)F	109.0	-12.6	103.0	-49.2
73	COc1ccccc1NC(=S)NC(=O)C(C)C	105.0	-1.2	100.0	7.3
74	CC1CCN(CN2C(=O)c3ccccc3C2=O)CC1	101.0	0.7	98.0	8.6
75	O=C(c1ccc(Br)cc1)N1CCC(Cc2ccccc2)CC1	104.0	x	102.0	-19.9

entry	canonical_smiles	Polio RdRp inh intensity	Mtb MbtI inh	Polio RdRp inh	MenB inh
76	CCCSc1oc(-c2ccccc2)nc1S(=O)(=O)c1ccccc1	99.0	12.4	104.0	-29.7
77	CC(NC(=O)C(C)(C)C)C(c1cccs1)N1CCOCC1 (configuration not stated)	99.0	-13.2	100.0	-3.8
78	O=c1oc2cc3occ(-c4ccccc4)c3cc2c2ccccc12	100.0	-7.7	102.0	-6.0
79	O=C1CCCC1C1Sc2ccccc2NC1=O (configuration not stated)	104.0	8.0	103.0	-159.6
80	CC(C)Oc1ccc(C(=O)N(CN2CCCC2=O)c2ccc(F)cc2)cc1	107.0	0.4	102.0	-28.3
81	O=C(/C=N/O)Nc1ccccc1C(=O)O	94.0	x	101.0	3.4
82	Cc1cc2n(n1)C(c1cccs1)Nc1ccccc1-2 (configuration not stated)	102.0	108.8	101.0	-15.8
83	CCOC(=O)c1cccnc1SCC(=O)N(C)c1ccccc1	101.0	-1.6	99.0	-2.2
84	C=CCNC(=O)CN1C(=O)c2ccccc2S1(=O)=O	102.0	-9.7	101.0	8.0
85	CCN(Cc1ccncc1)C(=O)c1cc(=O)c2ccccc2o1	101.0	2.6	99.0	x
86	COc1ccc(CC(=O)Nc2ccc(N3CCN(c4ccc(OC)cc4)CC3)c(C#N)c2)cc1	102.0	31.5	100.0	2.2
87	CC(C)=NNC(=O)COc1ccccc1	96.0	2.0	99.0	-42.3
88	CC(C)CC(=O)Nc1ccc(N2CCN(C(=O)c3cccs3)CC2)cc1	102.0	-1.1	103.0	-18.4
89	O=c1c2ccccc2c2ccccc2c(=O)n1-c1ccccc1	103.0	2.5	99.0	2.1
90	CCOc1ncccc1C(=O)N1CCN(c2cccc(OC)c2)CC1	98.0	1.4	100.0	-19.4

entry	canonical_smiles	Polio RdRp inh intensity	Mtb MbtI inh	Polio RdRp inh	MenB inh
91	O=C(CSC(=S)N1CCOCC1)c1c[nH]c2ccccc12	95.0	-5.8	99.0	6.4
92	NC(=O)Cn1nc2sc3ccccc3n2c(=O)c1=O	104.0	65.5	101.0	-3.4
93	COc1ccc(-c2c(C(=O)O)oc(=O)c3ccccc23)cc1	101.0	9.8	101.0	10.6
94	Cc1ccc(NC(=O)C2C3C=CC4(O3)C2C(=O)N(CCCN2CCOCC2)C4C(=O)NC2CCCC(C)C2C)cc1Cl (configuration not stated)	x	-12.3	x	-1.1
95	COc1cccc(NC(=O)Cn2c(-c3cncs3)nc3ccccc32)c1	102.0	x	104.0	-0.9
96	C#CCOc1ccc2c(c1)c(C(=O)OCC)c(C)n2-c1ccc(N(C)C)cc1	103.0	55.3	104.0	-0.4
97	Cc1nn(Cc2c(Cl)cccc2Cl)c(C)c1NC(=O)c1noc2c1CC(C(C)(C)C)CC2 (configuration not stated)	105.0	13.2	101.0	-11.5
98	O=C(NCc1cccs1)c1cc2c(s1)-c1ccccc1OC2	102.0	103.0	104.0	-31.9
99	COc1ccc(CCn2c(=S)[nH]c3cc(C(F)(F)F)ccc32)cc1OC	109.0	-4.2	100.0	-10.7
100	Cc1ccc(OCC(=O)Nc2ccc(S(=O)(=O)N3CCOCC3)cc2)c(C)c1	103.0	-7.0	100.0	-7.1
101	CS(=O)(=O)c1ccc2sc(N)nc2c1	103.0	9.8	104.0	-13.1
102	N#CC1(C#N)C(c2ccco2)OC23CCCCC2C1(C#N)C(=N)O3 (configuration not stated)	142.0	x	90.0	-17.4
103	Cc1ccccc1NC(=O)NC1(C(=O)N2CCc3ccccc32)CCCCC1	99.0	-8.9	103.0	-16.3
104	CCCc1nnc2n1N=C(c1ccc(Br)cc1)CS2	105.0	0.1	100.0	-20.2
105	CCS(=O)(=O)c1ccc(OC)c(NN=c2c(=O)c3ccccc3c2=O)c1	104.0	3.2	101.0	13.2
106	CC(=O)OCC1=C(C(=O)O)N2C(=O)[C@@H](NC(=O)CSc3ccncc3)[C@H]2SC1	98.0&101.0	1.4&-17.7	99.0&101.0	-8.2&12.4
107	CC1(C)CC(N=Cc2ccco2)CC(C)(C)N1	105.0	-2.5	99.0	-3.6
108	Cc1cc(SC(C)C(=O)O)n2c(nc3ccccc32)c1C#N (configuration not stated)	97.0	9.8	93.0	-55.0
